# BJeLR viability – MLPCN primary cell-based screen for lethality selective to Ras in HRASV12 cells. BJeLR (HRASV12) viability, CellTiter-Glo ATP luminescence, 48 h; reference of the scale not given here. inhibition, % (concentration not given with the values). 300,000 tested, 0.17% active. AID 1554, 2009;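 active = replicate mean above 50%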;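 also: 50 nL library stock added to about 25 µL; numbers are from one replicate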
# Autofluor counter – flagged as autofluorescent in microsphere protease counterscreen | compound autofluorescence counterscreen, microsphere flow cytometry; active compounds read high | fluorescence intensity (no concentration beside the values) | 360,000 tested, 3.1% active | AID 624483;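 active = at least 3 SD above the mean of all compounds, about 16000 in these data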;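 also: 100 nL of 1 mM stock went into each well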
# Mtb hypoxia rep – PubChem AID 1159583; M. tuberculosis hypoxia-regulated fluorescent reporter, fluorescence; fluorescence inhibition, % (no concentration beside the values); 300,000 tested, 0.1% active;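 active = 35 to 45% if threefold the growth effect, above 45% if 1.5-fold the growth effect; inactive = the rest, general growth blockers included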;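 also: wells of about 50 µL received 100 nL stock; 0% = vehicle wells and 100% = reference inhibitor wells; whole bacteria with a GFP reporter of the hypoxia response; strong numbers were not always called active; many hits fall short of the cut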
# PrP UTR inh – inhibition of PrP 5' UTR reporter expression. cell-based PrP 5' UTR mRNA reporter, plate reader. inhibition, % (no concentration beside the values). 340,000 tested, 0.35% active. AID 488862, 2010;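 active = every replicate at 50% or more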;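 also: 0 = median of the neutral control wells; tested in H4 reporter cells; numbers are from one replicate; inactives centre near -14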
# Sa ugtP lethal – growth inhibition of ugtP-null S. aureus, primary screen, RN4220 ugtP deletion, OD600. growth inhibition, % (concentration not given with the values). 330,000 tested, 0.54% active. 16 h; some inactives read as strong as hits;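 active = z-score under -3 and OD600 up to 0.15 on both plates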;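 also: plate controls were untreated wells for no effect and antibiotic for full effect; wells of about 80 µL received 100 nL stock; the first replicate is given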
# RN4220 kill – growth inhibition of S. aureus RN4220, primary screen, OD600; AID 1259311, 2017; 16 h; inhibition, % (no concentration beside the values); 330,000 tested, 0.33% active;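 active = z-score of -3 or lower and OD600 up to 0.18 on both plates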;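 also: plate controls were untreated cells for no effect and reference antibiotic for full effect; stock transfer was 100 nL into about 80 µL; one replicate is shown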
# Mtb hypoxia rep growth – recorded beside Mtb hypoxia rep, whose call it bears; growth inhibition, %; measured here: M. tuberculosis growth (absorbance);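 0% = vehicle and 100% = reference antibiotic; read after six days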
# An asterisk follows results filed as active; / = no result given. Not a hit list. About 4% of those tested had a hit in this group.
SMILES,BJeLR viability,Autofluor counter,Mtb hypoxia rep,Mtb hypoxia rep growth,PrP UTR inh,Sa ugtP lethal,RN4220 kill
O=C(CCS(=O)(=O)c1ccc(Cl)cc1)Nc1nc(-c2cccnc2)cs1,-5,4871,5,2,-15,3,5.2
Cc1cc(NS(=O)(=O)c2ccc(NC(=O)/C=C/c3c(F)cccc3Cl)cc2)nc(C)n1,2,4618,10,12,-16,1,-4.0
COC(=O)[C@@H](NC(=O)c1ccccc1OC1CCN(S(C)(=O)=O)CC1)C(C)C,3,3278,-8,-8,-19,-1,-3.0
Clc1cccc(Cl)c1C=NNc1c(Cl)cncc1Cl,/,/,9,4,/,22,4.8
CCn1cc(C(=O)NCc2ccccc2F)c(=O)c2ccc(C)nc21,-5,3343,12,10,-9,7,3.0
COc1cc(/C=N/Nc2ccc(Cl)c(C(=O)O)c2)ccc1OCC(=O)N1C(C)CCCC1C (stereo not drawn),-2,4126,/,/,0,/,/
Cc1cc(C)nc(CCNC(=O)c2cc(COc3c(F)cccc3F)on2)n1,-4,1994,9,9,-9,-3,-0.4
CCc1nc(CNC(=O)C2CCC(=O)N(Cc3cccc(OC)c3)C2)no1 (stereo not drawn),-4,4247,7,5,-88,10,4.2
Cc1c(CC(=O)NCC(C)C)c(=O)oc2cc3c(cc12)CCC(C)(C)O3,15,3619,3,9,-19,7,-3.2
O=C(CN1CCC(O)(c2ccc3c(c2)OCO3)CC1)N1CCOCC1,13,7631,-2,0,-12,7,2.4
Cc1ccc(C2CC(c3cccc(Br)c3)n3nc(N)nc3N2)cc1 (stereo not drawn),7,5707,/,/,-8,6,-0.1
COc1ccc(NC(=S)NC(NC(=O)/C=C/c2ccccc2)C(Cl)(Cl)Cl)cc1 (stereo not drawn),1,3515,-3,5,-23,-11,-6.1
COc1cc(/C=C2/SC(N)=NC2=O)ccc1Oc1ccc([N+](=O)[O-])cc1[N+](=O)[O-],8,7921,25,9,-19,-6,11
Nc1cccnc1Oc1ccc(F)cc1,-3,5134,12,17,-7,12,2.9
O=c1c2ccccc2ncn1-c1ccc([N+](=O)[O-])cc1[N+](=O)[O-],4,3573,-1,-3,-14,14,6.2
Cc1cc(NC(=O)COc2c(C)cccc2C)no1,-30,4373,13,4,-8,5,10
CC12COC3(C(N)=O)CC1CCC32C (stereo not drawn),-6,2044,1,6,-7,18,4.1
Nc1nnc(N2CCc3ccccc32)s1,-1,5639,/,/,-34,-6,1.1
Cc1cc(NC(=O)c2cncc(Br)c2)n(-c2ccccn2)n1,-4,4660,-1,2,-6,10,8.6
C=CCn1c(CCc2cc(C(C)(C)C)c(O)c(C(C)(C)C)c2)n[nH]c1=S,2,4259,-9,9,-14,6,6.5
COc1ccccc1-c1oc2ccccc2c1-c1ccccc1OC,/,3137,-3,3,-22,8,-4.7
CNCCCOc1ccc2c(c1)CCC2,4,2610,/,/,-12,/,/
COC(=O)c1ccc(N=NNc2ccc(C(=O)OC)cc2)cc1,1,9022,14,8,-27,2,8.6
CC(CC(=O)Nc1cccnc1)=NNC(=O)c1ccc([N+](=O)[O-])c(Cl)c1,/,/,-4,13,/,2,5.4
COc1cc(NS(=O)(=O)c2ccc(NC(=O)COc3ccccc3Cl)cc2)nc(OC)n1,1,/,3,18,/,-16,0.5
Cc1cc(C)c(S(=O)(=O)N(C)CC(=O)N2CCCCC2)c(C)c1,-3,3875,/,/,-32,-5,3.8
CC(=O)c1ccc(NC(=O)CSc2nnc(NC(=O)C3CC3)s2)cc1,-7,5582,11,4,-21,-3,-0.3
Cc1ccc(C(=O)N/C(=C\c2ccc(-c3cccc([N+](=O)[O-])c3)o2)C(=O)NCCCN(C)C)cc1,1,3765,13,10,-12,-3,-3.0
Cc1cc(C(=O)OCC(=O)Nc2cc(C(F)(F)F)ccc2N2CCOCC2)c(C)o1,-7,4256,/,/,-28,1,3.6
S=c1[nH]nc(C2CCCCC2)n1/N=C/c1cccc(Cl)c1Cl,-1,2972,/,/,-26,/,/
Cc1nnc(SCC2=C(C(=O)O)N3C(=O)C(NC(=O)Cc4ccccc4)C3SC2)s1 (stereo not drawn),/,5418,/,/,-2,100*,100*
Cc1ccc(S(=O)(=O)N2CCCC(C(=O)NCC(C)C)C2)cc1 (stereo not drawn),13,4127,6,20,-12,2,8.0
CN(C)S(=O)(=O)c1ccc(Cl)c(NC(=O)CN2CCc3ccccc3C2)c1,-1,6154,-1,6,-23,2,1.7
CCOc1ccc(-c2noc(CCCC(=O)NCC3CCCO3)n2)cc1OC (stereo not drawn),-1,5819,3,-3,-20,5,2.2
Cc1cccn2c(=O)c3cc(C(=O)NC4CCS(=O)(=O)C4)sc3nc12 (stereo not drawn),-4,5010,-7,-14,-11,-9,-3.0
Cc1cc(C)cc(NC(=O)CSc2nc(=O)n(CCN3CCOCC3)c3c2CCCC3)c1,3,5491,5,6,-60,4,1.9
O=[N+]([O-])c1ccc(NN=C2CC3CC=CC23)c([N+](=O)[O-])c1 (stereo not drawn),/,/,7,3,/,19,35
COc1ccccc1N(C)C(=O)c1cc(S(=O)(=O)N2CCc3ccccc32)cn1C,-6,5853,8,11,-11,-6,7.1
FC(F)(F)c1ccc(-n2ccnc2)nc1,0,3071,-2,-6,5,8,3.7
COc1ccccc1C(=O)NC(=O)COC(=O)CCNS(=O)(=O)c1ccccc1,2,5836,-1,2,-8,5,1.9
Cc1nc2c(-c3ccc(F)cc3)c(C)[nH]n2c(=O)c1Cl,-1,/,-12,-8,15,-2,10
COc1ccc(/C=C/C(=O)Nc2nc(C)c(C(=O)N(C)C)s2)cc1OC,7,2087,0,7,-9,3,0.5
Cc1ccc(C(=O)c2cc3ccccc3o2)cc1C,-4,2604,/,/,-63,-1,11
O=C(Cc1ccc(Cl)c(Cl)c1)NCC1(N2CCOCC2)CCCCC1,3,3346,-10,2,-19,13,3.0
COc1cc(/C=C2\SC(=S)N(Nc3ncc(C(F)(F)F)cc3Cl)C2=O)cc(OC)c1OC,-12,6505,6,-4,/,-9,-1.8
CC(C)CN1CCN(Cc2cccc3cccnc23)CC1CCO (stereo not drawn),-1,3195,-10,-2,0,6,14
CC1Cc2nc(SCC(=O)N3CCc4ccccc43)n(C)c(=O)c2S1 (stereo not drawn),-5,2755,/,/,-12,-1,0.1
COc1ccc(NC(=O)c2c(C(F)(F)F)nn(C)c2Cl)cc1,-6,3507,8,-2,-67,0,1.0
Nc1nc2c(s1)COc1ccccc1-2,-1,4781,7,16,-20,0,-2.3
Cn1c(=O)cc(OCCCC(=O)NCc2ccco2)c2ccccc21,-10,17294*,5,5,-4,4,1.6
O=C(N/C(=C/c1cccc([N+](=O)[O-])c1)C(=O)N1CCCCC1)c1cccs1,3,2208,-1,2,-17,-5,-0.4
COCCn1c(N)c(N(Cc2ccccc2)C(=O)C2=COCCO2)c(=O)[nH]c1=O,1,4091,1,-17,-10,8,1.4
CCCCOC(=O)C1[C@H]2C(=O)N(Cc3cccs3)C[C@]23C=C[C@H]1O3 (stereo partly drawn),0,10411,4,9,/,-9,9.1
CCc1c(C)c2c(C)nn(-c3ccccc3)c2oc1=O,-9,4725,/,/,-12,8,6.5
CCCOc1ccc(C(=O)CCC(=O)NNC(=O)c2ccncc2)cc1,-9,4861,/,/,-10,4,1.2
COc1ccc(CCN=C(N)NS(=O)(=O)c2ccccc2)cc1OC,7,2761,-10,-9,-11,7,-1.7
N=c1c(S(=O)(=O)c2ccc(Cl)cc2)cc2c(=O)n3ccccc3nc2n1C1CCCCC1,-3,5925,4,3,-8,-8,0.4
CCC(C)C(NC(=O)C1CCC(C)CC1)C(=O)NC(C(=O)OC)C(C)C (stereo not drawn),1,3675,/,/,-17,1,-1.6
Cc1[nH]n(-c2c(Cl)cc(Cl)cc2Cl)c(=O)c1C=Nc1ccc(S(=O)(=O)N2CCOCC2)cc1,0,2480,12,5,-1,-3,5.3
CCOC(=O)Cc1csc(NC(=O)CSc2nnc(-c3cccnc3)n2Cc2ccco2)n1,-5,4597,1,-2,-10,3,2.4
# Additional compounds follow:
SMILES,BJeLR viability,Autofluor counter,Mtb hypoxia rep,Mtb hypoxia rep growth,PrP UTR inh,Sa ugtP lethal,RN4220 kill
CC1CCN(S(=O)(=O)c2ccc(C(=O)Nc3nnc(-c4ccco4)o3)cc2)CC1,7,4480,-2,0,3,8,31
Cc1cc(=O)c2cc(Br)ccc2[nH]1,3,8400,10,16,-6,-2,3.6
O=C(CC(=O)N/N=C/c1ccc(C(=O)O)cc1)NCCc1ccccc1,1,3647,/,/,-26,/,/
Cn1c(=O)c2c(nc(NCCCN3CCOCC3)n2Cc2cccc(Cl)c2)n(C)c1=O,1,22276*,-2,1,-21,-5,0.6
O=C(c1cc(-c2ccco2)nc2ccccc12)N1CCN(c2ccc(F)cc2)CC1,2,2395,5,3,-24,-1,-2.2
O=C(Nc1ccc(Cl)c(S(=O)(=O)N2CCCCC2)c1)c1cnccn1,/,5670,7,8,/,-8,5.1
COc1ccc(NS(=O)(=O)c2cccc(C(=O)NN=Cc3cn(-c4ccccc4)nc3-c3ccccc3)c2)cc1,/,/,10,-4,/,-1,2.7
O=C(O)C1CCN(c2nc(-c3ccccc3)c3cc(Br)ccc3n2)CC1,4,3954,9,-5,-34,-20,1.9
Cc1ccc(-c2nnc(N3CCN(C(=O)CN4C(=O)c5ccccc5C4=O)CC3)c3ccccc23)cc1,3,4500,1,-4,-14,1,4.2
Cc1c(NC(=O)CSC2=C(C#N)C(c3ccccc3F)CC(=O)N2)c(=O)n(-c2ccccc2)n1C (stereo not drawn),-6,3501,/,/,-9,6,2.2
COC(=O)C1=CN(c2ccc(F)cc2)C=C(C(=O)OC)C1c1cccc([N+](=O)[O-])c1,-16,3126,7,-4,-11,1,1.4
Cc1ccccc1CN(C)C(=O)COC(=O)CSc1ccc([N+](=O)[O-])cc1,2,6485,4,6,-22,7,3.5
CC(C)Cn1c(=O)c2ccccc2n2c(CCC(=O)NCC3CCCO3)nnc12 (stereo not drawn),-7,7351,0,1,3,0,0.0
Cc1nnc(SCCC(C)C)[nH]c1=O,-5,9718,5,3,-34,-1,1.1
Cc1cc(NC(=O)CN2CCC(n3nnc4cc(C(F)(F)F)ccc43)CC2)no1,5,10606,7,1,-24,3,9.7
Cc1nc2sc(C(=O)O)c(N)c2c2c1COC(C)(C)C2,-10,3947,/,/,-15,/,/
CCCC(=O)Nc1cccc(C(=O)Nc2ccccc2OCC)c1,6,/,4,6,/,4,2.9
CC[C@@H](C)C(NC(=O)OC(C)(C)C)c1cn([C@@H](Cc2cc3ccccc3[nH]2)C(=O)N2CCN(C(=O)OC(C)(C)C)CC2)nn1 (stereo partly drawn),-8,4095,/,/,-13,/,/
O=C(COC(=O)[C@H](Cc1ccccc1)NC(=O)c1ccco1)NCc1ccccc1,-4,9224,8,4,-16,4,4.2
COc1ccc(OC)c(-c2csc(NC(=O)Cc3ccccc3F)n2)c1,-9,4114,1,0,-13,5,-5.3
O=C(c1ccc2snnc2c1)N1CCSCC1,9,/,13,6,-14,-2,5.7
CCCCOC(=O)c1sc2nc(N3CCOCC3)c3c(c2c1N)CC(C)(C)OC3,0,4753,-5,-3,-19,0,2.5

# Shown field by field: four of the compounds above.
O=C(COC(=O)[C@H](Cc1ccccc1)NC(=O)c1ccco1)NCc1ccccc1
  BJeLR viability: -4
  Autofluor counter: 9224
  Mtb hypoxia rep: 8
  Mtb hypoxia rep growth: 4
  PrP UTR inh: -16
  Sa ugtP lethal: 4
  RN4220 kill: 4.2
COc1ccc(OC)c(-c2csc(NC(=O)Cc3ccccc3F)n2)c1
  BJeLR viability: -9
  Autofluor counter: 4114
  Mtb hypoxia rep: 1
  Mtb hypoxia rep growth: 0
  PrP UTR inh: -13
  Sa ugtP lethal: 5
  RN4220 kill: -5.3
O=C(c1ccc2snnc2c1)N1CCSCC1
  BJeLR viability: 9
  Autofluor counter: /
  Mtb hypoxia rep: 13
  Mtb hypoxia rep growth: 6
  PrP UTR inh: -14
  Sa ugtP lethal: -2
  RN4220 kill: 5.7
CCCCOC(=O)c1sc2nc(N3CCOCC3)c3c(c2c1N)CC(C)(C)OC3
  BJeLR viability: 0
  Autofluor counter: 4753
  Mtb hypoxia rep: -5
  Mtb hypoxia rep growth: -3
  PrP UTR inh: -19
  Sa ugtP lethal: 0
  RN4220 kill: 2.5

# Assay outcomes from PubChem BioAssay.
